Bioassay records (PubChem BioAssay)
Prx2 Sm inh = Schistosoma mansoni Prx2 inhibition. S. mansoni Prx2 activity coupled to TGR/GSH (TGR is thioredoxin glutathione reductase), NADPH fluorescence loss, qHTS; some inactives read as strong as hits. Potency, µM. hit rate 0.07% among 65,000. AID 448; active means full or partial inhibition curve with a strong effect at the top dose; inconclusive means weaker partial or single-point curve; inactive means no accepted curve; further: series up to 57 µM; many of its hits are not listed in these tables
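Enzyme mix: 100 uM NADPH, 25 nM TGR, 700 uM GSH, 50 nM Prx2 in 100 mM phosphate pH 7.4, 10 mM EDTA, 0.01% Tween-20. 15 min RT with compound; NADPH/GSH added, H2O2 starts reaction; NADPH fluorescence read 8 min.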
Anthrax LT inh = blocks cellular internalization of anthrax lethal toxin; Cells, anthrax lethal toxin internalization, FRET ratio (460/530); Potency, µM (doses to about 40 µM), for the others: top-dose activity change, negative = inhibition, most hits filed as inhibitors; hit rate 0.67% among 70,000; AID 912; active = well fitted falling ratio curve with the 530 nm signal flat; inconclusive = other ratio curves, or a change in one channel alone; inactive = flat curves in the ratio and both channels; the % refers to the ratio; further: on the % scale 0 is the no-effect control and ±100 the full control effect; nearly all actives have a fitted effect of over 50% in size; tested in ME-180 cells; beta-lactamase reporter
Starred values were filed as active, the others as inactive; ? = inconclusive; nt = not tested or not shown; [ ] = dose if it differs, or a comment. Potency means the concentration at half of the fitted maximal effect. The list is partial. The share of hits here may be higher or lower than overall.

Molecule,Anthrax LT inh,Prx2 Sm inh
Cn1c(=O)[nH]c(=O)c2c1nc(CN1CCN(c3ccccc3F)CC1)n2CCCc1ccccc1,11%,>57
CCC1CCCCN1CCNC(=O)c1[nH]c(C)c(C(C)=O)c1C (stereo not given),-3%,>57
O=C(O)Cn1c(O)c(C=Nc2ccccc2)sc1=S,?,>57
Cc1ccc2c(c1C)NC(C(=O)O)C1CC=CC21 (stereo not given),-6%,>57
O=C(CN1C(=O)C2C3C=CC(C3)C2C1=O)N1CCc2ccccc2C1 (stereo not given),7%,>57
C[C@@H](C(=O)O)[C@H]1C[C@]1(C)[C@H](NC(=O)OCc1ccccc1)c1ccccc1,3%,>57
ClC(Cl)=C(Cl)C(Cl)=C(Cl)Cl,-7%,nt
O=C1C(CCS(=O)c2ccccc2)C(=O)N(c2ccccc2)N1c1ccccc1 (stereo not given),0%[3.58 µM],>57
CSC1=NCCN1C(=O)Cc1cccs1,1%,>57
O=C(c1cc2ccccc2o1)c1nc2c(n1O)CCCCC2,1%,nt
Cc1nnc(SCCCN2C(=O)c3ccccc3C2=O)o1,-21%,>57
CCN(CC)S(=O)(=O)c1cc(C(=O)n2cccn2)c(Cl)cc1Cl,-12%,>57
COCCn1nnnc1C(c1cc2cc(OC)ccc2[nH]c1=O)N1CCC(Cc2ccccc2)CC1 (stereo not given),?,>57
COCCNC(=O)C1(CC(C)C)C=CCN1C(=O)OC (stereo not given),7%,nt
CC1=CC(=O)CC(C)(C)[C@@]1(O)/C=C\C(C)=C\C(=O)O,?,>57
CCN1CCCC1CNC(=O)C1c2ccccc2C(=O)N(CCOC)C1c1ccc(F)cc1 (stereo not given),?,>57
CCCn1c(SCC(=O)N2CCN(S(=O)(=O)c3ccc(Cl)cc3)CC2)n[nH]c1=O,?,>57
O=C(COc1ncnc2ccccc12)NC1CCS(=O)(=O)C1 (stereo not given),-3%,>57
O=C1CCCc2nc(N3CCN(C(c4ccccc4)c4ccccc4)CC3)ncc21,-25%,>57
O=C(CN1C(=O)c2cccc3cccc1c23)N1CCN(c2ccc(F)cc2)CC1,6%,>57

Record cards, as listed above.
O=C(CN1C(=O)c2cccc3cccc1c23)N1CCN(c2ccc(F)cc2)CC1 as listed: Anthrax LT inh: 6%; Prx2 Sm inh: >57
CCCn1c(SCC(=O)N2CCN(S(=O)(=O)c3ccc(Cl)cc3)CC2)n[nH]c1=O as listed: Anthrax LT inh: ?; Prx2 Sm inh: >57

(list continues)
Molecule,Anthrax LT inh,Prx2 Sm inh
COc1ccc(Cc2nc(-c3ccc(-n4cccc4)cc3)no2)cc1OC,?,>57
O=C(O)[C@H]1C[C@@H](CP(=O)(O)O)CCN1,-17%,>57
C=C(C)C1CCC(C)=C1CC(C)(C)/C=N\n1cnnc1 (stereo not given),-4%,>57
COC(=O)c1cc2oc(C)cc2n1CC(=O)Nc1cc(C)cc(C)c1,-12%,>57
CN(CCCNC(=O)C1CCN(S(=O)(=O)N2CCC3(CC2)OCCO3)CC1)Cc1ccccc1,22%,>57
O=c1c2ccccc2c2ccccc2c(=O)n1Cc1ccco1,-2%,>57
COc1ccc(N(CC(=O)NCc2ccco2)S(=O)(=O)c2c(C)nn(C)c2C)cc1,4%,>57
CCN(CC)CCCN=Cc1c(O)n(CCc2ccc(OC)c(OC)c2)c(=O)[nH]c1=O,18%,>57
CN(C)CCCN1C(=O)c2oc3ccccc3c(=O)c2C1c1cccs1 (stereo not given),?,>57
CN1C(=O)CSc2ccc(NC(=O)NCc3cccnc3)cc21,14%,>57
O=C1c2ccccc2C(Nc2ccc3nc(-c4cccnc4)[nH]c3c2)N1Cc1ccco1 (stereo not given),?,>57
NC(=O)CSP(=O)(c1ccccc1)c1ccccc1,6%,>57
Cc1cc(-c2nc3ncccc3o2)ccc1NC(=O)CC(C)C,1%,>57
COc1ccccc1CN1CCC2(CC1)CCN(C(=O)c1ccco1)CC2,?,>57
O=C1CCC(C(=O)OCc2cc(Cl)ccc2OC(F)F)N1 (stereo not given),7%,>57
Cc1cc(=O)[nH]c(N2CCCC2)n1,-4%,>57
O=C(Cc1cccs1)NCc1ccco1,-3%,>57
CCOc1ccc(C2/C(=C(/O)c3ccccc3)C(=O)C(=O)N2CCCN(C)C)cc1OC (stereo not given),-13%,>57
C=Cn1ccnc1P(=S)(c1c(C)nn(-c2ccccc2)c1C)c1nccn1C=C,18%,>57
CC(=O)c1cccc(NC(=O)c2cc(-c3ccc(F)cc3)on2)c1,-9%,>57

Quoted at random: 2 compounds from above.
Molecule,Anthrax LT inh,Prx2 Sm inh
Cc1cc(-c2nc3ncccc3o2)ccc1NC(=O)CC(C)C,1%,>57
NC(=O)CSP(=O)(c1ccccc1)c1ccccc1,6%,>57

Next part.
Molecule,Anthrax LT inh,Prx2 Sm inh
O=C1c2ccccc2C(=O)c2c1ccc(N1C(=O)c3ccccc3C1=O)c2-c1c(N2C(=O)c3ccccc3C2=O)ccc2c1C(=O)c1ccccc1C2=O,-19%[8 µM],>57
O=C(Nc1ccc(Cc2ccc(NC(=O)C3CC3)c(O)c2)cc1O)C1CC1,-3%,>57
Brc1cccc(/C=N\n2cnnc2)c1,?,>57
CCN1CCN(C(c2cccs2)C(C)NS(=O)(=O)c2ccc(F)cc2)CC1 (stereo not given),-5%,>57
COc1ccccc1C(c1nnnn1C(C)(C)C)N1CCN(Cc2ccncc2)CC1 (stereo not given),1%,>57
Clc1ss/c(=N\c2ccccn2)c1Cl,-13%,>57
O=S(=O)(Nc1nc2ccccc2nc1NCc1ccco1)c1cccs1,?,>57
O=C(Nc1ccccc1)N(C1=NCCC1)c1ccc(OC(F)F)cc1,?,>57
O=C(Oc1ccccc1)N1CCN(c2ccc(F)cc2)CC1,-16%,nt
CCCOC(=O)c1ccc(NC(=O)C2CCCO2)cc1 (stereo not given),nt,>57
CCOC(=O)c1ccc(-n2[nH]c(-c3ccccc3)cc2=O)cc1,?,>57
Cc1cc(C)nc(-n2nc(C)cc2Nc2ccccc2)n1,-19%,>57
COc1ccc(OC)c(NC(=O)COc2ccc(S(=O)(=O)NC(C)C)cc2)c1,-10%,>57
Cc1ccccc1S(=O)(=O)Nc1nc2ccccc2nc1N1CCOCC1,?,>57
O=C(Nc1cccnc1)c1ccc2c(c1)OCO2,18%,>57
Cc1ccc(NCc2nnc(SCCN3CCCCC3)n2CC2CCCO2)cc1Cl (stereo not given),-10%,>57
COc1ccc2c(CCNC(=O)c3ccco3)c[nH]c2c1,4%,>57
Cc1ccc(N(CC(=O)N2CC(=O)Nc3ccccc32)S(=O)(=O)c2ccc3c(c2)OCCO3)cc1,9%,>57
Cc1[nH]n(-c2ccccc2)c(=O)c1/C=N/O,-6%,nt
Cc1occc1C(=O)NCc1cccs1,-12%,nt
Cc1nn(-c2ccccc2)c(C)c1/C=N/O,-1%,>57
COc1ccc2c(c1)CCc1c(C(=O)N3CCc4ccccc4C3)noc1-2,?,>57
Cc1nnc(SCC(=O)n2c3c(c4ccccc42)CCCC3)s1,-7%,>57
CCCNC(=O)c1cc(-c2ccc(Br)cc2)on1,-1%,>57
CCOc1ccc(-c2nnn(CC(=O)Nc3ccccc3OC)n2)cc1OCC,3%,>57
Clc1ccc(OCc2nn3c(-c4ccncc4)nnc3s2)cc1,nt,>57
Cc1ccc(N2CCN(S(=O)(=O)N(C)C)CC2)c(C)c1,?,>57
Cc1ccccc1NC(=O)CN1CCC(NC(=O)Nc2ccccc2)CC1,-9%,>57
CCN(CC)C(=O)CSc1nnc(-c2ccccn2)n1-c1ccc(C)c(C)c1,-2%,>57
O=C(Nc1cccnc1)c1ccc(COc2ccccc2Br)o1,-27%,>57
O=C1COc2ccc(C(=O)COC(=O)C3CCN(S(=O)(=O)c4cccs4)CC3)cc2N1,4%,>57
COc1ccccc1OCC(=O)Nc1cccc(-c2nc3ccccc3o2)c1,-26%,>57
CCC1=C/C(=C/N(C)c2ccccc2)C(=O)S1,-14%,>57
CCOC(=O)c1nn(-c2sc(C(=O)OC)c(C)c2C(=O)OC)cc1O,-26%,>57
O=C(Cc1cccs1)N(c1ccc(Cl)cc1)C1C=CS(=O)(=O)C1 (stereo not given),-3%,>57
Cc1ccc(-c2nc3ncccc3o2)cc1NC(=O)c1ccco1,?,>57
CN(CC(=O)Nc1nc2ccccc2s1)S(=O)(=O)c1ccccc1,-21%,>57
COC(=O)[C@@]1(Cc2ccc(OC)cc2)[C@H]2c3cc(C(=O)N(C)C)n(CCc4ccc(OC)c(Br)c4)c3C[C@H]2CN1C(=O)c1ccccc1,?,>57
CN(Cc1ccco1)c1ncnc2ccc(-c3ccccc3C(F)(F)F)cc12,?,>57
CCOC(=O)CSc1nc2sc(C)c(C)c2c(=O)n1C,1%,nt
COc1cc(C2N(c3ccccc3)CCN2c2ccccc2)ccc1OC(C)=O,-16%,nt
COC(=O)[C@@]1(Cc2ccccc2)[C@H]2c3cc(C(=O)N(C)C)n(Cc4ccccc4)c3C[C@H]2CN1C(=O)c1ccccc1,?,>57
Cc1cc(N=Cc2c(O)n(-c3ccc4c(c3)OCO4)c(=O)c3ccccc23)ccn1,7.9µM*,>57
CCOc1c(Br)cc(CNc2ncn[nH]2)cc1OC,-2%,>57
Cc1ccc(NC(=O)C2(N(CC(C)C)C(=O)Cn3nnnc3N)CCCCC2)cc1,2%,>57
CC(C)(C)OC(=O)N1CC=C2C(C#N)=C(N)C(C#N)(C#N)C(c3cccs3)C2C1 (stereo not given),-13%,>57
Nc1cccc(S(=O)(=O)c2cccc(N)c2)c1,5%,>57
CCn1c(O)c(C=Nc2ccccc2)oc1=S,-15%,>57
COc1cc(C(=O)NCc2nnc(SCC(=O)Nc3cccc(C)c3)o2)cc(OC)c1OC,-3%,>57
CCCN1C[C@@H](CSC)C[C@H]2c3cccc4[nH]cc(c34)C[C@@H]21,?,>57

(continued)
Molecule,Anthrax LT inh,Prx2 Sm inh
CSc1cccc(NC(=O)C2CCN(S(C)(=O)=O)CC2)c1,7%,>57
CCOc1ccccc1C(=O)NC(C)c1ccc2c(c1)OCO2 (stereo not given),8%,>57
O=C(OCCOc1ccc(Br)cc1)c1cnccn1,3%,>57
O=C(CN1C(=O)CSc2ccccc21)Nc1ccc2c(c1)OCCO2,-12%,>57
Cc1c(C(=O)N2CCOCC2)sc2ncn(CC(=O)N3CCC(C)CC3)c(=O)c12,-10%,>57
COc1ccc(CNC(=O)c2cnn3c(C(F)F)cc(C)nc23)cc1OC,-8%,>57
Cc1ccc(S(=O)(=O)N2CCC(C(=O)OCC(=O)N3CCc4ccccc43)CC2)cc1,-8%,>57
CC1CCN2c3nc4ccccn4c(=O)c3CC3(C(=O)N(C)C(=O)N(C)C3=O)C2C1 (stereo not given),nt,>57
COCCNC(=O)CSc1nc2cc(OC)c(OC)cc2c(=O)n1CCC1=CCCCC1,?,>57
Cc1cc(C)nc(Nc2n[nH]c(Cc3ccccc3)n2)n1,3%,>57
O=C(NCCN1CCCCCC1)C1CC(=O)N(CCc2ccccc2)C1 (stereo not given),2%,>57
O=C(CC1C(=O)NCCN1C(=O)Nc1ccccc1)Nc1ccc2c(c1)OCO2 (stereo not given),nt,>57
Cn1c(=O)c2[nH]c(CCCCc3nc4ccccc4[nH]3)nc2n(C)c1=O,-18%[8 µM],>57
O=C(O)c1nnsc1-c1csnn1,-12%[8 µM],>57
CC1(C)CC(=O)C=C(NC2CC(C)(C)NC(C)(C)C2)C1,5%,>57
CC1(C)Cc2ccccc2-c2nc3ccccc3c(=O)n21,?,nt
O=C(CN1CCN(c2ccc(F)cc2)CC1)Nc1ccc(F)c(F)c1,2%,>57
CN(C)C(=O)Oc1cc(OC(=O)N(C)C)cc([C@@H](O)CNC(C)(C)C)c1,-9%[3.58 µM],>57
CCSc1nnc(NC(=O)c2cnccn2)s1,-5%,nt
Cc1cccnc1-n1c(-c2ccco2)nc2ccccc2c1=O,6%,nt
CC1(C)CC2(CCO1)CNC(=O)O2 (stereo not given),3%,nt
c1ncc(-c2ccoc2)c(NC2CC2)n1,?,>57
O=C(NC1CCCC1)C1CCC(=O)N1C1CCCC1 (stereo not given),4%,>57
O=C(/C=N/O)Nc1ccccc1,7%,>57
COC(=O)C1CCN(C(c2ccc(OC)c(OC)c2)c2sc3nc(C)nn3c2O)CC1 (stereo not given),3%,>57
COc1cc(OC)c(C2N(c3ccc(Cl)cc3)C(=O)C3CCCN32)cc1OC (stereo not given),0%,>57
CCCc1cc(C(=O)NCCc2ccc(OC)c(OC)c2)no1,-7%,>57
